# Bfl-1 A1 inh: inhibitors of the anti-apoptotic protein A1, read as caspase activation | MEF A1-2A-BIM cells, Caspase-Glo 3/7 luminescence, 3 h; percent of clofoctol response, vehicle zero | AID 2462 | 330,000 compounds, 0.066% hits | caspase activation, % (concentration not given with the values);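 active means over half of replicate activation scores above 10%, or exactly half above 10 with the replicate mean above 10; inconclusive means replicate mean below 10 yet half the replicates above 10; inactive means over half of replicates below 10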;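 further: wells of about 30 µL received 50 nL stock; many hits fall short of the cut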
# rRNA inh HTS: inhibits bacterial ribosomal RNA function over humanized ribosomes | E. coli WT GFP vs humanized-ribosome RFP mutants, fluorescence, 24 h; active compounds read low; DMSO median 0, no signal -100 | GFP signal change (wild-type ribosome), % (test concentration not listed) | 350,000 compounds, 1.6% hits | AID 720706;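 active means significant combined selectivity score with lowered wild-type GFP, culture density cut under 30%, mutant RFP and density less affected; inactive means any of these conditions unmet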; further: one replicate is shown; some compounds called inactive have numbers as strong as hits
# Beta apoptosis: beta cell apoptosis inhibition; 300,000 compounds, 0.8% hits; protection from apoptosis, % (test concentration not listed); AID 435005; INS-1E cytokine-induced death, ATP luminescence, 48 h; percent of positive-control rescue, neutral wells zero;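 active means all replicates at 75% or more, or half of them and the mean; inconclusive means half reach 75% but not the mean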;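 further: 0% = cytokine-treated negative control wells and 100% = positive control rescue; higher means more ATP so stronger rescue from cytokine killing; wells of about 40 µL received 100 nL stock; the first replicate is given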
# AF4-AF9 inh: inhibitors of human MLL-AF4/AF9 interaction | P42568 | AlphaScreen, biotin-AF4 peptide binding to FLAG-AF9 | inhibition, % at 10 µM | 350,000 compounds, 0.47% hits | AID 651704;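 active means every replicate reaching a set inhibition limit, whatever the replicate mean, cut at about 25% in these data; inconclusive means mean inhibition reaches that limit but some replicates miss it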;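 further: 0% = plate neutral control median and 100% = total signal loss; the record names both 10 and 1 µM as test concentration; the first replicate is given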
# Target sequence (P42568 whole entry, looked up): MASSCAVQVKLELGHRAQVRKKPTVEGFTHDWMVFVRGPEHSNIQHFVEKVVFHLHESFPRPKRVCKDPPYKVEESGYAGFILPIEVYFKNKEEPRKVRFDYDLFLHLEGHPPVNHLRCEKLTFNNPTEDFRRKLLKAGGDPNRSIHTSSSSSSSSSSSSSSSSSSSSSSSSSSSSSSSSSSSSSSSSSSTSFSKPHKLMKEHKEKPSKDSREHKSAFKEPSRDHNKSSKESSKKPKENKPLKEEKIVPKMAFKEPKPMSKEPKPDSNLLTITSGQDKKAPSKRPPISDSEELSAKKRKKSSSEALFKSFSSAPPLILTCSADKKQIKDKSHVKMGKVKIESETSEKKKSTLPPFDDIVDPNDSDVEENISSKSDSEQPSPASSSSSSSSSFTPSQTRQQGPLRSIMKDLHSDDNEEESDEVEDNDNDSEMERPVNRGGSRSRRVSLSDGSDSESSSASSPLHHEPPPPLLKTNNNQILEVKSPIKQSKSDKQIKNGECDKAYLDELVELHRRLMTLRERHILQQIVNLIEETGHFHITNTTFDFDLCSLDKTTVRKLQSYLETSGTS
# Vif A3G: HIV-1 Vif–A3G interaction blockers – biochemical, TR-FRET, GST-Vif 1-94, biotin-A3G peptide, dose response retest, primary screen (AID 1117319); TR-FRET GST-Vif / biotin-A3G peptide binding; higher % means a stronger effect; test concentration not given here; strong numbers were not always called active; one-dose inhibition, %; IC50 in µM for titrated hits; 260,000 compounds, 0.57% hits;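 active means above the screen mean plus three standard deviations and confirmed in dose response; inconclusive means results disagree or hit not tested in dose response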;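 further: Vif residues 1-94 fused to GST binding biotinylated APOBEC3G peptide 110-148; 0% = full assay without inhibitor and 100% = GST in place of GST-Vif; retest series ran down from 100 µM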
# rRNA inh HTS OD600: recorded beside rRNA inh HTS, whose call it bears; OD600 change, %; measured here: OD600 growth;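 optical density of the mix in the first replicate; 0 = DMSO median and -100 = no signal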
# rRNA inh HTS RFP: also measured in rRNA inh HTS; calls as there; RFP signal change, %; measured here: RFP humanized mutant strains;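 first replicate; 0 = DMSO median and -100 = no signal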
# Numbers without * were called inactive; ? = inconclusive; · = no result given; & = joins results of further samples. These rows are one share of the data. The share of hits here may be higher or lower than overall.
SMILES,Bfl-1 A1 inh,rRNA inh HTS,rRNA inh HTS OD600,rRNA inh HTS RFP,Beta apoptosis,AF4-AF9 inh,Vif A3G
C[C@@H]1CN([C@H](C)CO)S(=O)(=O)c2ccc(C#C[C@@H](C)O)cc2O[C@@H]1CN(C)C(=O)CC1CC1,·,2,7,-0.4,·,0.0,·
CC=Cc1ccc2n(c1=O)C[C@@H]1[C@@H](CO)[C@H](C(=O)NCCC)N(CC3CC3)[C@H]21 (mixture of isomers),·,-1,-3,-4.3,·,0.7,·
CN(C)C(=O)c1cccc(-c2ccc([C@@H]3[C@@H](CO)N4C(=O)CN(C(=O)C5CC5)C[C@H]34)cc2)c1,·,9,14,1.0,·,10,·
O=C(NC1CCCCC1)N[C@H]1C=C[C@H](CC(=O)N2CCOCC2)O[C@H]1CO,·,1,7,1.4,·,0.8,·
CS(=O)(=O)N1CC2(C1)[C@@H](c1ccccc1)[C@@H](CO)N2CCC(F)(F)F,·,0,3,-0.1,·,-1.6,·
CCCC(=O)Nc1ccc2c(c1)C(=O)N(C)C[C@@H](OC)[C@@H](C)CN(C)[C@H](C)CO2,·,3,3,-0.6,·,-0.7,·
CN(C)CCCNC(=O)C[C@@H]1CC[C@@H](NS(=O)(=O)c2ccccc2)[C@@H](CO)O1,·,3,-2,2.7,·,0.1,·
C[C@@H]1CCCCO[C@H](CN(C)C(=O)NC2CCCCC2)[C@H](C)CN([C@@H](C)CO)C(=O)c2cc(NC(=O)c3ccncc3)ccc2O1,·,0,2,0.6,·,0.5,·
C[C@H]1CN([C@@H](C)CO)C(=O)c2cc(NC(=O)NC3CCCCC3)ccc2O[C@@H]1CN(C)Cc1ccc2c(c1)OCO2,·,3,16,-1.5,·,-1.6,·
O=C(c1ccccc1)c1ccccc1,0.2,8,12,12,·,-3.3,·
COc1cc2ccc(=O)oc2cc1O,1.1,5,-3,-3.9,·,-2.0,·
O=C1/C(=C/c2ccc(O)c(O)c2)Oc2cc(O)ccc21,0.5,-17,-68,23,·,3.2,·
COc1cc(C)cc(C(=O)O)c1C1=C(O)c2cccc(O)c2C(=O)C1=O,1.1,-3,-9,-2.8,·,-4.7,·
N[C@@H](CCC(=O)N[C@@H](CSN=O)C(=O)NCC(=O)O)C(=O)O,0.6,7,13,-0.8,·,-19,·
c1ccc(CSCc2ccccc2)cc1,0.5,-25*,-13*,-8.2*,·,-1.1,·
Nc1ncnc2c1ncn2[C@@H]1O[C@H](COP(=O)(O)OP(=O)(O)OP(=O)(O)O)[C@@H](O)[C@H]1O,-0.5,-7,-11,-2.8,·,9.1,·
CC(CN(C)C)CN1c2ccccc2Sc2ccccc21 (configuration not stated),1.1,-23,-21,-1.6,·,19,·
Cc1cc(Nc2ccc3ccccc3c2)n2ncnc2n1,0.0,·,·,·,7,·,?
O=C(Nc1cccc2c1C(=O)NC2=O)c1ccc(S(=O)(=O)N2CCCC2)cc1,-0.3,·,·,·,-5,·,0%
CC1(C)CC(=O)C(C=NCC2CCCO2)=C(O)C1 (configuration not stated),0.2,·,·,·,2,·,7%
CC(C)(C)c1ccc(NC(=O)COC(=O)c2ccc([N+](=O)[O-])s2)cc1,-0.3,·,·,·,-3,·,?
CN1CCN(C(=O)CN(Cc2ccc(Cl)cc2)S(C)(=O)=O)CC1,0.3,·,·,·,-7,·,-1%
Nc1nc2ccc(N3CCOCC3)cc2s1,-2.6,·,·,·,2,·,10%
CCC(=O)N1CCc2cc(S(=O)(=O)NC(CC(C)C)C(=O)N3CCc4ccccc43)ccc21 (configuration not stated),0.3,·,·,·,7,·,8%

# Reformatted with tabs: part of the list above.
Structure	Bfl-1 A1 inh	rRNA inh HTS	rRNA inh HTS OD600	rRNA inh HTS RFP	Beta apoptosis	AF4-AF9 inh	Vif A3G
Cc1cc(Nc2ccc3ccccc3c2)n2ncnc2n1	0.0	·	·	·	7	·	?
Nc1nc2ccc(N3CCOCC3)cc2s1	-2.6	·	·	·	2	·	10%

# (more compounds)
SMILES,Bfl-1 A1 inh,rRNA inh HTS,rRNA inh HTS OD600,rRNA inh HTS RFP,Beta apoptosis,AF4-AF9 inh,Vif A3G
CCC1=C/C(=C\c2ccc3c(c2)OCO3)C(=O)S1,-0.7,·,·,·,8,·,?
COc1ccc(Nc2nnc(SCC(=O)c3cc(C)n(CC4CCCO4)c3C)s2)cc1 (configuration not stated),0.2,·,·,·,-6,·,1%
Cn1c(/C(C#N)=C/c2ccc(-c3ccc(S(N)(=O)=O)cc3)o2)nc2ccccc21,0.8,·,·,·,4,·,21%
COc1ccc(NC(=O)c2ccc(CN3CCN(c4ccccc4)CC3)cc2)cc1OC,0.8,·,·,·,-5,·,-2%
N#CC(C#N)=C1C=C2C=C(N3CCCCC3)CCC2CC1 (configuration not stated),0.3,·,·,·,-3,·,5%
O=C(COc1cc(Cl)ccc1Cl)Nc1nnc(CC(=O)N2CCOCC2)s1,0.4,·,·,·,0,·,16%
COc1ccc(-n2c(=O)cc(N3CCN(c4ccccc4F)CC3)[nH]c2=O)cc1,0.9,·,·,·,1,·,?
Cc1c(C(=O)N/N=C/c2ccc(O)c(Br)c2)sc(N)c1C#N,-0.5,·,·,·,1,·,?
Cc1ccc(NC(=O)Cn2c(O)c(N=NC(=O)c3cc4ccccc4cc3O)c3ccccc32)cc1,1.0,·,·,·,102*,·,-8%
COc1ccccc1OCC(=O)Nc1oc(-c2ccccc2)c(-c2ccccc2)c1C#N,-0.2,·,·,·,-1,·,-1%
Cc1ccc(-n2ncc3c(=O)n(CC(=O)NCC4CCCO4)cnc32)cc1 (configuration not stated),-0.8,·,·,·,-4,·,4%
COc1cccc(C(=O)COc2cccc(NC(=O)c3cccc([N+](=O)[O-])c3)c2)c1,1.1,·,·,·,10,·,26%

# Quoted at random: three records from the list, in no set order.
SMILES,Bfl-1 A1 inh,rRNA inh HTS,rRNA inh HTS OD600,rRNA inh HTS RFP,Beta apoptosis,AF4-AF9 inh,Vif A3G
COc1ccccc1OCC(=O)Nc1oc(-c2ccccc2)c(-c2ccccc2)c1C#N,-0.2,·,·,·,-1,·,-1%
COc1ccc(Nc2nnc(SCC(=O)c3cc(C)n(CC4CCCO4)c3C)s2)cc1 (configuration not stated),0.2,·,·,·,-6,·,1%
Cc1ccc(NC(=O)Cn2c(O)c(N=NC(=O)c3cc4ccccc4cc3O)c3ccccc32)cc1,1.0,·,·,·,102*,·,-8%

# The list continues.
SMILES,Bfl-1 A1 inh,rRNA inh HTS,rRNA inh HTS OD600,rRNA inh HTS RFP,Beta apoptosis,AF4-AF9 inh,Vif A3G
Cc1cc(=O)n2nc(N3CCCC(C(=O)NCCc4ccccc4)C3)sc2n1 (configuration not stated),0.8,·,·,·,-4,·,6%
C=CCNC(=O)c1ccc(Cl)cc1Cl,1.3,·,·,·,7,·,5%
Cc1cc(C)n2c(SCc3c(C)noc3C)nnc2n1,1.4,·,·,·,24,·,-1%&15%
N#Cc1c(Cl)nc(SCc2ccccc2)nc1-c1ccccc1,0.6,·,·,·,2,·,7%
O=C(NCc1ccccc1)/C(=N\O)c1ccccc1,1.0,·,·,·,2,·,10%
COCc1cc(C)nc(NC2CCCCC2)c1C#N,0.4,·,·,·,-7,·,-1%
O=C(Cn1cnc2ccccc21)Nc1cccc(S(=O)(=O)N2CCCC2)c1,1.6,·,·,·,16,·,3%
Fc1cccc(CN2CCN(c3ncccn3)CC2)c1,-0.1,·,·,·,0,·,22%
Cc1ccc(Oc2ccc(-c3nc(N)nc(N)n3)cc2)cc1,-0.1,·,·,·,-2,·,-1%
Cc1noc(C)c1COc1ccc(C(=O)OCC(=O)N2CC3(C)CC2CC(C)(C)C3)cc1 (configuration not stated),-0.8,·,·,·,-4,·,-2%
Cc1cc(=O)n2nc(N3CCCC(C(=O)N4CCOCC4)C3)sc2n1 (configuration not stated),-1.0,·,·,·,-1,·,-2%
OC1CCCN(Cc2cccc3ccccc23)C1 (configuration not stated),1.0,·,·,·,-1,·,8%

# Next section (6 carried over from the part before).
SMILES,Bfl-1 A1 inh,rRNA inh HTS,rRNA inh HTS OD600,rRNA inh HTS RFP,Beta apoptosis,AF4-AF9 inh,Vif A3G
O=C(Cn1cnc2ccccc21)Nc1cccc(S(=O)(=O)N2CCCC2)c1,1.6,·,·,·,16,·,3%
Fc1cccc(CN2CCN(c3ncccn3)CC2)c1,-0.1,·,·,·,0,·,22%
Cc1ccc(Oc2ccc(-c3nc(N)nc(N)n3)cc2)cc1,-0.1,·,·,·,-2,·,-1%
Cc1noc(C)c1COc1ccc(C(=O)OCC(=O)N2CC3(C)CC2CC(C)(C)C3)cc1 (configuration not stated),-0.8,·,·,·,-4,·,-2%
Cc1cc(=O)n2nc(N3CCCC(C(=O)N4CCOCC4)C3)sc2n1 (configuration not stated),-1.0,·,·,·,-1,·,-2%
OC1CCCN(Cc2cccc3ccccc23)C1 (configuration not stated),1.0,·,·,·,-1,·,8%
COc1ccccc1NC(=O)CN1CCN(CC(=O)Nc2ccc3c(c2)OCO3)CC1,-0.8,·,·,·,3,·,9%
COc1cccc(C=NCCNC(=O)c2nonc2N)c1O,-0.4,·,·,·,0,·,25%
O=C1C2Sc3[nH]c(=O)sc3C(c3ccccc3)C2C(=O)N1c1ccc(Cl)cc1 (configuration not stated),0.3,·,·,·,-2,·,13%
CCN1CCN(CCNC(=O)c2cn(Cc3ccccc3F)nn2)CC1,-0.2,·,·,·,-3,·,20%
O=C(O)C1CCC(=O)N1Cc1ccccc1Cl (configuration not stated),0.0,·,·,·,-9,·,5%
COc1ccc(-c2nnn(CC(=O)Nc3ccc4c(c3)OCCO4)n2)cc1OC,-0.3,·,·,·,-5,·,-2%
COC(=O)[C@@]1(Cc2ccc(OC)cc2)[C@H]2c3cc(C(=O)N4CCCC4)n(CCSCCO)c3C[C@H]2CN1C(=O)c1ccccc1,1.4,·,·,·,5,·,4%
COC(=O)[C@@]1(Cc2ccc(F)cc2)[C@H]2c3cc(C(=O)N(C)C)n(C[C@H](O)CO)c3C[C@H]2CN1C(=O)c1ccccc1,0.3,·,·,·,-4,·,2%
COC(=O)C1=C(C)N(Cc2ccco2)C(=O)N[C@H]1c1cccc(C(F)(F)F)c1,-0.2,·,·,·,-1,·,12%
CCOc1ccccc1Nc1ccc(C(=O)O)cc1NC(C)=O,0.7,·,·,·,-6,·,2%
COc1cc(NC(=O)CN2C(=O)NC(C)(CC(C)C)C2=O)cc(OC)c1 (configuration not stated),1.1,·,·,·,-6,·,1%
CC1CCCN(CCC(=O)c2ccc(Br)cc2)C1 (configuration not stated),-0.3,·,·,·,-8,·,0%
O=c1cc(CSc2ccccn2)c2ccccc2[nH]1,0.7,·,·,·,-4,·,78%
CCOC(=O)C1CCN(Cc2ccc(N(C)C)cc2)CC1,0.4,·,·,·,-2,·,29%
Cn1c(C(C#N)C2=C(Cl)C(=O)N(c3ccccc3)C2=O)nc2ccccc21 (configuration not stated),0.0,·,·,·,-5,·,17%
CC(C)SCc1nc2ccccc2[nH]1,0.5,·,·,·,-7,·,29%
CC[n+]1ccc(C[n+]2ccccc2)c2ccccc21,-0.3,·,·,·,-2,·,32%

# Source: PubChem BioAssay (several laboratories)
